Furin inhibitor: blocks human furin protease activity. P09958. purified furin, fluorogenic substrate cleavage. inhibition, % at 30 µM. 220,000 tested, 0.061% active. AID 463115; in the data active = inhibition above about 25%; note: inactives centre near -15
Target sequence (P09958 108-714 limits assumed): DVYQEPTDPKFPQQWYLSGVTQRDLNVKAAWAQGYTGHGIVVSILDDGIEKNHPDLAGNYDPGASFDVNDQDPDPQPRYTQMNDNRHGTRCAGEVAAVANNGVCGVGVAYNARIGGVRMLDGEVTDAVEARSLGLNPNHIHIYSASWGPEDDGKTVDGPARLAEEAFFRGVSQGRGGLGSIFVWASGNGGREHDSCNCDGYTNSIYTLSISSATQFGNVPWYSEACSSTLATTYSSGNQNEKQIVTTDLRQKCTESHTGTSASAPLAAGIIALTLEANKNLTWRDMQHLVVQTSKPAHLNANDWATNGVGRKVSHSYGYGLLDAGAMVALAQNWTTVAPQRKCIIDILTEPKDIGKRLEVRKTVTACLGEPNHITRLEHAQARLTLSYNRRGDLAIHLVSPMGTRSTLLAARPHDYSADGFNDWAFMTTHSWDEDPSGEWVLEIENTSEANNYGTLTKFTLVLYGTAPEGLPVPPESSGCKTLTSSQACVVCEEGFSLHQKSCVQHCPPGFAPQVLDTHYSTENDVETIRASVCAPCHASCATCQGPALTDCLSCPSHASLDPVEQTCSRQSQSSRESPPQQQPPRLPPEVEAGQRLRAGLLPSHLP
NCF1 inh: p47phox (human) inhibition | P14598 | p47phox/p22phox peptide binding, fluorescence polarization, 2 h | inhibition, % at 24.7 µM | 220,000 tested, 0.53% active | AID 1274;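 active = inhibition above about 30%, limit read from the data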;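 note: 0% = p47phox with labelled peptide and 100% = labelled peptide alone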
Thrombin inh: thrombin (human) inhibition | 220,000 tested, 0.26% active | inhibition, % at 5 µM | P00734 | alpha-thrombin, Boc-VPR-AMC fluorogenic substrate cleavage;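 active = inhibition at or above 40%; inactive = inhibition below 40%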;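 note: 0% = enzyme with no compound and 100% = wells without enzyme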
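Material: human alpha-thrombin protein. Incubation: reaction at ambient temperature. Technique: fluorescence of released AMC, ex 355 nm, em 460 nm. Control set: no-compound enzyme wells and no-enzyme blanks. Also added: Boc-VPR-AMC substrate, 15 µM final. Buffer or medium: pH 7.5 Tris (50 mM) with NaCl 150 mM, Tween 20 0.05%.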
Rad51 HR inh: blocks human Rad51 in homologous recombination | hRad51 DNA strand exchange, fluorescence dequenching | inhibition, % at 10 µM | 200,000 tested, 0.085% active | AID 1385;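 active = inhibition above 40% at the single screening dose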;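 note: 0% = DMSO control wells and 100% = blanks with heterologous ssDNA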
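Test system: preformed human Rad51 ssDNA filaments; also added: Donor/quencher-labelled 47-bp dsDNA substrate; doses: 10 µM final, single point; times: 37 °C 15-min filament assembly, 30-min compound preincubation, 15-min exchange; detection: FRET fluorescence dequenching, excitation 485 nm, emission 520 nm; read-out basis: Fluorescence-based percent inhibition, control- and blank-normalised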
14-3-3 Bad PPI: disrupts binding of bovine 14-3-3 zeta to phospho-Bad peptide; 220,000 tested, 0.71% active; AID 781; P63103; inhibition, % at 21.7 µM; TR-FRET 14-3-3zeta/Dy647-pBad peptide displacement, 1 h;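 active = inhibition above about 70%, limit read from the data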;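 note: 0% = full 14-3-3 plus peptide FRET controls and 100% = background without 14-3-3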
* = called active by the depositor; . = not tested or not shown; & = joins results of further samples; ! = not active in a repeat; [ ] = dose if it differs, or a comment. The list is partial; rates above refer to the full screens.

#1 CCOC(=O)N1CCC(=C2c3ccc(Cl)cc3CCc3cccnc32)CC1
#2 O=C(O)C1CCN(S(=O)(=O)/C=C/c2ccccc2)CC1
#3 C[c-]1[c-](C)[c-](C)[c-](C)[c-]1C.[Fe].c1cc2nccc(N3CCCC3)[c-]2c1 (stereo not given)
#4 CC(=O)Nc1ccc(Oc2ncccn2)cc1
#5 CC1=C(CO)C(=O)OC([C@@H](C)C2CC[C@H]3C4C[C@H]5O[C@]56[C@@H](O)C=CC(=O)[C@]6(C)C4CC[C@]23C)C1 (stereo not given in full)
#6 COc1ccc(Cn2cc(C(=O)O)c(=O)c3ccccc32)cc1
#7 COc1ccc(C(=O)CN2C(=O)NC(C)(c3ccc(C)cc3)C2=O)cc1OC (stereo not given)
#8 Cc1ccc(/C=C/C(=O)c2ccccc2)cc1
#9 O=C(NC(=S)NCCC1=CCCCC1)c1ccc(Br)o1
#10 CCOc1ccc(Cn2c3ccc(OC)cc3c3nc4ccccc4nc32)cc1OC
#11 CCCCNc1ccc(C(=O)O)cc1

assay / compound	1	2	3	4	5	6	7	8	9	10	11
Furin inhibitor	-11	-12[20 µM]	-14&-27	-29[20 µM]	-36	-20	-13[20 µM]	-6[20 µM]	-29	-16	-2
NCF1 inh	-10&-6	-3	30*!	1	-3	-7	-17	1	-10	-14	3
Thrombin inh	.	-8	2	-5	3	6	2	1	2	1	-11
Rad51 HR inh	-6	-6	-9&-2	7	-4	24	-7	8	4	-12	.
14-3-3 Bad PPI	5&3	-10	23&-1	4	-5	-7	-14	.	-9	-3	-18

One compound at a time (already shown).
CC1=C(CO)C(=O)OC([C@@H](C)C2CC[C@H]3C4C[C@H]5O[C@]56[C@@H](O)C=CC(=O)[C@]6(C)C4CC[C@]23C)C1 (stereo not given in full) across the screens: Furin inhibitor = -36; NCF1 inh = -3; Thrombin inh = 3; Rad51 HR inh = -4; 14-3-3 Bad PPI = -5
O=C(O)C1CCN(S(=O)(=O)/C=C/c2ccccc2)CC1 across the screens: Furin inhibitor = -12[20 µM]; NCF1 inh = -3; Thrombin inh = -8; Rad51 HR inh = -6; 14-3-3 Bad PPI = -10

Another view of some results above:
Order of results – Furin inhibitor	NCF1 inh	Thrombin inh	Rad51 HR inh	14-3-3 Bad PPI
8. Cc1ccc(/C=C/C(=O)c2ccccc2)cc1
  -6[20 µM]	1	1	8	.
9. O=C(NC(=S)NCCC1=CCCCC1)c1ccc(Br)o1
  -29	-10	2	4	-9
